Screening results as filed in PubChem.
ClpP mod – qHTS Assay for Activators of ClpP | ATP-dependent Clp protease proteolytic subunit (Bacillus subtilis (strain 168)), P80244 | purified B. subtilis ClpP, FRET peptide cleavage, 20 min | Potency, µM (series often up to 57.5 µM), for the others: at the highest dose activity change, negative = active | actives 1.9% (n = 340,000) | AID 651965, 2013; active = well fitted falling curve with a large enough effect; inconclusive = small, poorly fitted or top-dose-only effect; inactive = no such curve, though single readings can be large or run the other way; also: potency is read from the fitted curve at half-maximal effect; the source files actives as falling curves though it sought activators and does not explain the sign; nearly all actives have a fitted effect of over 65% in size; many hits overshoot -100%
Target sequence (P80244 whole entry, looked up): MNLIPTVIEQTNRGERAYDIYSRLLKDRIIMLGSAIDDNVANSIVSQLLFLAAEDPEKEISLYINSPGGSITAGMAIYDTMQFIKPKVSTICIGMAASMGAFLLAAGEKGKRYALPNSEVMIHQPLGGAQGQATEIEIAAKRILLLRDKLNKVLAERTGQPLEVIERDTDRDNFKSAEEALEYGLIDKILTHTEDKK
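ClpP 10 microg/mL final, pH 8 Tris/KCl buffer with BSA, glycerol, Tween-20; compound pinned in; FRET-FV substrate; RT 20 min; Ex320/Em430; ΔFRET vs ADEP 5.8 microM, DMSO, no enzyme.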
gsp antagonist – qHTS for Antagonists of gsp, the Etiologic Mutation Responsible for Fibrous Dysplasia/McCune-Albright Syndrome: qHTS | gsp-mutant cells, cAMP HTRF, 30 min; control for the full effect not named in the record | Potency, µM (titrated, usually from 76.9 µM), for the others: at the top dose activity change, negative = inhibition, actives largely listed as inhibitors | actives 0.4% (n = 340,000) | AID 624288, 2012; active = falling curve of any shape with a large fitted effect; inconclusive = falling curve, mostly with a smaller effect; inactive = flat or rising curve; cell line not stated here;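 also: intracellular cAMP measured with PDE inhibitor Ro 20-1724 present during compound exposure; potency is read from the fitted curve at half-maximal effect; % is scaled to controls: 0 for no effect and ±100 for the full control effect; nearly all actives have a fitted effect of over 65% in size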
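G418-selected cells were plated in DMEM/10% FBS for 16-24 h at 37C, then treated with compounds plus the PDE inhibitor […] (300 uM solution added) for 30 min at 37C. Intracellular cAMP was measured by HTRF after 30 min lysis at room temperature.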
TRPV1 potentiator – HTS Assay for Compounds that Act as Potentiators of the Vanilloid Receptor 1. Transient receptor potential cation channel subfamily V member 1 (Homo sapiens), Q8NER1. TRPV1-expressing cells, Fluo-8 calcium influx, capsaicin EC20 potentiation; host cell line not named in the record; control for the full effect not named in the record. potentiation, % at 8.33 µM. actives 0.02% (n = 320,000). AID 540277, 2011; active means potentiation above 80%; inconclusive means 30% to 80%; inactive means below 30%; also: 0% is about no effect
Target sequence (Q8NER1 whole entry, looked up): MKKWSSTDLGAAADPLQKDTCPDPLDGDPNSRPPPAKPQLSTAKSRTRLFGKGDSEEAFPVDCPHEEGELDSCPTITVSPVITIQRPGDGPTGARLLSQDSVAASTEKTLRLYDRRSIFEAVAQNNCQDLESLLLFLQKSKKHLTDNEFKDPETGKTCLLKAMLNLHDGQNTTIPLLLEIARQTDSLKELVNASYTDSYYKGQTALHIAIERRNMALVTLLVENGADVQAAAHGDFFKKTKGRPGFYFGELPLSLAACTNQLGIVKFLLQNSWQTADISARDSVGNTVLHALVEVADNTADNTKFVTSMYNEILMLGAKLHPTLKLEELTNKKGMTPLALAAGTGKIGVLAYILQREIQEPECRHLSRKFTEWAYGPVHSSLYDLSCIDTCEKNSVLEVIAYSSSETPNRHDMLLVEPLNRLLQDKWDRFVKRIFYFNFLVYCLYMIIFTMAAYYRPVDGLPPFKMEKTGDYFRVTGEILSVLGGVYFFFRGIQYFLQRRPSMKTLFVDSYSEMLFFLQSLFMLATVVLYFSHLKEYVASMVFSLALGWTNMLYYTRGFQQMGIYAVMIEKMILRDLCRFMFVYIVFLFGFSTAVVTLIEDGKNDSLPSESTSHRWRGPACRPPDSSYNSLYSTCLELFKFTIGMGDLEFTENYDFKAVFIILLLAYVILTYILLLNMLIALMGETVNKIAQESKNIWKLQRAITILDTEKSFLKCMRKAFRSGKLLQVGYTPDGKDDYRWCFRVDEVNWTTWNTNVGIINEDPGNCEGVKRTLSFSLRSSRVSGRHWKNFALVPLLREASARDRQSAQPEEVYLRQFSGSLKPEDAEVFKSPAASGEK
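Cells expressing TRPV1 were dye-loaded with Fluo-8 and read kinetically: 10 s baseline, 3 min after compound (agonist portion), then 2 min after EC20 capsaicin (allosteric enhancer portion). Calcium-bound dye fluorescence at 480/520 nm.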
Menin-MLL FL inh – qHTS Assay for Inhibitors Targeting the Menin-MLL Interaction in MLL Related Leukemias: Competition With Fluorescein Labeled MLL-derived Peptide; AID 1766, 2009; Fluorescence polarization, fluorescein-MLL peptide displacement from menin; FP activity change, % at 61.4 µM; 290,000 tested, under 10 active; inconclusive = falling polarisation curve, or a change in total fluorescence; inactive = total fluorescence flat and polarisation flat or rising; no compound was filed as active; the % refers to the polarisation; negative = inhibition;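 also: % of control where 0% means no effect; inhibitors lower the polarisation; unlabelled MLL peptide was the positive control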
D2 potentiator – Beta-Arrestin HTS for Positive Allosteric Modulators of the Human D2 Dopamine Receptor: Potentiators. DiscoveRx D2 beta-arrestin cells, luminescence, 90 min; 100% = 57 uM dopamine signal. potentiation, % (no concentration beside the values). actives 0.23% (n = 360,000). AID 624464, 2012; active = potentiation of 50% or more; inconclusive = 30% to 50%; inactive = 30% or less;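 also: compound concentration not given in the record; tested on top of an EC20 dose of dopamine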
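D2 cells co-treated with compound plus 50 nM dopamine (EC20) for 90 min at 37 deg C to detect potentiation. Beta-arrestin recruitment was read as enzyme-fragment luminescence after 1 h at ambient temperature. Full response was set by 57 uM dopamine.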
Sfp inh – qHTS Assay for Inhibitors of Bacillus subtilis Sfp phosphopantetheinyl transferase (PPTase); 4'-phosphopantetheinyl transferase ffp (Bacillus subtilis), Q9F4F7; Biochemical Sfp PPTase activity, qHTS; Potency, µM, for the others: max response, negative = inhibition, most hits filed as inhibitors; actives 3.5% (n = 310,000); AID 1490, 2009; active = well fitted inhibition curve with a large enough effect; inconclusive = small, poorly fitted or top-dose-only effect, or another doubt; inactive = no such curve, though single readings can be large or run the other way;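 also: the enzyme is Sfp with the accession as filed and its product quenches rhodamine fluorescence; potency is read from the fitted curve at half-maximal effect; 0% = enzyme reaction without inhibitor and -100% = no enzyme wells; top concentration of the series not given in the record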
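With Hepes-Na pH 7.6 buffer containing 10 mM MgCl2, Sfp (15 nM) modified BHQ-2-YbbR (12.5 uM) using rhodamine-CoA (5 uM). Two reads 30 minutes apart at 525/598 nm yielded each well's rate.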
gsp ag – qHTS for Agonist of gsp, the Etiologic Mutation Responsible for Fibrous Dysplasia/McCune-Albright Syndrome: qHTS. gsp mutant cells, cAMP HTRF, 30 min; control for the full effect not named in the record. Potency, µM (doses to about 76.9 µM), for inactives: top-dose activation (cAMP increase), most hits filed as activators. actives 0.13% (n = 340,000); active = well fitted activation curve with a large enough effect; inconclusive = small, poorly fitted or top-dose-only effect, or another doubt; inactive = no such curve, though single readings can be large or run the other way; cell line not stated here;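 also: phosphodiesterase inhibitor Ro 20-1724 added with compounds to block cAMP breakdown; potency is read from the fitted curve at half-maximal effect; nearly all actives have a fitted effect of over 60% in size; about a fifth of the inactives were tested at one dose only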
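Cells in DMEM/10% FBS with G418 were pretreated with compounds in DMSO plus […] (300 uM stock) for 30 min at 37C. cAMP was measured by HTRF (cAMP-d2 plus anti-cAMP antibody-K) after 30 min at room temperature.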
* marks the source's active call; other numbers are inactive results; ? = inconclusive; nt = no result given; & = joins results of further samples; [ ] = another dose, or the depositor's remark. Random draw from the library; about 5.1% have a hit in one of these screens.

SMILES	ClpP mod	gsp antagonist	TRPV1 potentiator	Menin-MLL FL inh	D2 potentiator	Sfp inh	gsp ag
O=C(Nc1ccc(Oc2ccc(C(=O)O)c(C(=O)O)c2)cc1)c1cccs1	nt	nt	-19	0.9	-8	3%	-2%[15.4 µM]
COc1ccccc1N1CCN(CC(O)c2ccc3cc[nH]c3c2)CC1 (stereo unspecified)	-6.1%	0%	0	6.5	-8	13%	9%
O=C(O)C1(O)C[C@H](O)C(O)[C@@H](O)C1 (stereo partly specified)	0.7%	-1%	11	-10	5	5%	nt
CCC(=O)Nc1ccc(NC(=O)CSc2nnnn2-c2cccnc2)cc1C	-0.4%	-10%	-8	-0.3	-3	15%	-2%
Cc1ccc(Cn2c(=O)n(C)c(=O)c3sccc32)cc1	nt	-3%	-4	-3.4	-2	21%	-19%
Cc1ccc(NC(=O)CCNS(=O)(=O)c2cc(Br)cnc2N)c(Cl)c1	nt	nt	12	3.6	nt	8%	nt
COc1ccc2c(c1)-c1ccccc1S(=O)(=O)N2C(C)=O	-2.1%	-4%	-1	1.0	-6	5%	28%
Cc1nn(CC(=O)NN)c(C)c1Br	0.4%	10%	-1	-2.7	4	-3%	13%
Cc1cc(C)c2nc(NC(=O)c3ccc(OCC4CCCO4)cc3)sc2c1 (stereo unspecified)	?	-12%	8	4.0	-10	-11%	-26%
COc1ccc(C(=O)Nc2cc(OC)cc(OC)c2)cc1	-2.0%	3%	-12	-3.9	-25	12%	?
Cc1ccc(OCC(=O)Nc2sc3c(c2C#N)CC(C)(C)NC3(C)C)cc1	-0.1%	16%	-2	4.1	-13	4%	-7%[15.4 µM]
CCOC(=O)C(C(=O)NCc1cccc(OC)c1)c1ncc(C(F)(F)F)cc1Cl (stereo unspecified)	1.4%	-4%	5	4.3	-20	8%	-13%
Cc1ccc2nc(-c3ccccn3)oc2c1	5.7%	5%	14	3.9	-15	15%	7%
NC(=O)CC(NC(=O)Cc1ccc(Br)cc1)c1ccc(NC2CCN(Cc3ccccc3)CC2)c([N+](=O)[O-])c1 (stereo unspecified)	1.6%	-5%	13	1.5	-44	15%	nt
CCN(CC)c1ccc2nc3ccccc3[n+](CC)c2c1	nt	?	-1	3.2	-13	?	9%
O=C(N/N=C/c1c(O)n(-c2ccccc2Cl)c(=O)c2ccccc12)c1cccnc1	-0.2%	-25%	?	?	6	14%	22%
COc1cc(OC)c2c(O)c3c(c(-c4c5c(c(O)c6c(OC)cc(OC)cc46)CO[C@@H](C)[C@H]5O)c2c1)[C@H](O)[C@H](C)OC3	-13%	6%	16	?	5	?	?
CC(C)c1ccc(C(C(=O)NC(C)(C)C)N(C(=O)CNC(=O)c2ccco2)c2cccnc2)cc1 (stereo unspecified)	1.1%	5%	3	-1.2	5	15%	-53%[inhibitor]
O=S(=O)(NCc1ccccc1Cl)c1cccs1	nt	7%	12	8.9	-7	0%	28%[15.4 µM]
COc1cc(Br)c(C(C)NC(=O)c2ccc(C)cc2)cc1OC (stereo unspecified)	1.0%	-6%	16	3.7	16	3%	-3%
Cc1cccc2c1Sc1ccc(Cl)cc1CC2N1CCNCC1 (stereo unspecified)	0.3%	0%	nt	nt	-15	nt	-27%
COc1ccc(N(C(=O)c2snc(C(N)=O)c2N)C(C(=O)NC2CCCCC2)c2ccc(C)o2)cc1 (stereo unspecified)	nt	-12%	6	0.7	-9	12%	-17%
CCNC(=O)N1CCCC(C(=O)c2ccc3cc(OC)ccc3c2)C1 (stereo unspecified)	nt	7%	0	-3.2	-10	-1%	-3%[15.4 µM]
CCN(CC)C(=S)Nc1ccc(OC)cc1	0.6%	2%	1	1.0	11	12%	-18%
C1CCCN(c2nc3nonc3nc2N2CCCCCC2)CC1	nt	-2%	-1	-3.6	-2	2%	6%[15.4 µM]
Cc1cc(Cc2cc(C)c(O)c(CO)c2)cc(CO)c1O	nt	3%	nt	nt	-5	nt	-2%
CC(=O)Nc1ccc(S(=O)(=O)N2CCCCC2c2cccnc2)cc1 (stereo unspecified)	0.0%	-18%	6	-0.6	-5	17%	0%
CC(=O)NCCn1c(SCC(=O)Nc2ccc(C)cc2)nc2ccccc2c1=O	-5.0%&-0.8%	-12%	-8	1.0	-6	12%	3%[15.4 µM]
S=C(Nc1ccc2snnc2c1)N1CCN(c2ccccn2)CC1	1.8%	6%	1	1.2	-26	15%	1%
CCOC(=O)c1[nH]c2ccc(OC)cc2c1C	?	-2%	nt	-0.4	-13	-5%	-30%
O=C(/C=C/c1ccccc1)N(Cc1ccc(Cl)cc1)C1CCS(=O)(=O)C1 (stereo unspecified)	0.5%	-10%	14	-5.8	5	-5%	-7%[15.4 µM]
CCOc1ccccc1NC(=O)Cn1c(-c2ccc(Cl)cc2)noc1=O	0.1%	-7%	13	1.3	14	27%	?
CCOc1cc(C(=O)N(C)CC(=O)Nc2cccc(F)c2)ccc1OCC(=O)N1CCCCC1	nt	-5%	0	nt	-4	nt	27%[15.4 µM]
CC1CCN(C(=O)CN(Cc2ccc(F)cc2)S(C)(=O)=O)CC1	nt	0%	3	-6.3	-7	2%	-27%
C/C(=N\O)C(=O)NCCCNCCCN(C)C	-0.3%	6%	1	-0.8	20	8%	?
COc1ccc(C)cc1NC(=O)c1nn(-c2ccccc2)cc1OC	1.3%	?	-6	3.3	-4	-26%	43%[15.4 µM]
O=S(=O)(Nc1cccc(C(F)(F)F)c1)c1cnc[nH]1	0.5%	7%	-1	1.9	-1	10%	9%
COc1cccc(Oc2ccc(N)cc2)c1	0.2%	14%	2	-1.7	-3	8%	0%
Cc1nn2c(=O)cc(CSCC(=O)Nc3ccccc3F)nc2s1	-0.2%	10%	2	nt	-6	-2%	-6%
CC1CCN(C(=O)c2cccc(S(=O)(=O)N3CCCc4ccccc43)c2)CC1	1.5%	-4%	-3	nt	1	nt	3%
CCOc1ncccc1C(=O)OC(C)C(=O)Nc1ccc(CC)cc1 (stereo unspecified)	nt	-11%	24	-0.4	-5	22%	-6%[15.4 µM]
CC1CCCCC12NC(=O)N(CC(=O)Nc1ccc(OC(F)F)cc1)C2=O (stereo unspecified)	1.1%	12%	nt	nt	-17	nt	-30%
CN(Cc1ccccc1)C(=O)c1cccc(NC(=O)Cc2cccc(NC(=O)C3CCN(C(=O)c4ccccc4)CC3)c2)c1	1.6%	1%	nt	nt	-2	nt	nt
Cc1sc2nc(CSC(C)C(=O)Nc3ccc(C(N)=O)cc3)[nH]c(=O)c2c1C (stereo unspecified)	?	0%	-3	nt	-20	nt	-26%
Cc1ccc(C)c(NC(=S)N2CCC(NC(=O)c3ccco3)CC2)c1	nt	4%	1	-3.4	1	5%	-4%
NC(=O)c1cc(S(=O)(=O)NCc2cccs2)cs1	1.1%	4%	-4	-0.6	2	13%	11%
Cc1nn(C(=O)C(C)N2C(=O)c3ccccc3C2=O)c(C)c1Br (stereo unspecified)	-12%	-5%	-7	-0.4	-11	2%	-2%
O=C(C1CC2CCC1C2)N1CCN(Cc2ccc3c(c2)OCO3)CC1 (stereo unspecified)	-2.1%	-5%	-8	-0.7	-18	10%	6%
Cc1csc2c(=O)sc(NC(=O)c3ccc(F)cc3Cl)nc12	29%	-9%	?	1.4	-7	0%	?
COc1cc(C(=O)Nc2nnc(C3=COCCO3)o2)cc(OC)c1OC	-0.6%	-10%	10	nt	-7	31%[activator]	12%[15.4 µM]
c1ccc(CSc2snnc2-c2ccccc2)cc1	-1.7%	-18%	?	-2.4	-22	-18%	6%
CCC(=NOCc1ccccc1)C(=O)NNS(=O)(=O)c1ccc(C)cc1	2.6%	1%	nt	nt	-16	nt	15%[15.4 µM]
COc1ccc(-c2nc3ncccc3o2)cc1NC(=O)c1cccs1	nt	?	0	0.9	1	15%	14%[15.4 µM]
C(=N\n1cnnc1)/c1ccc(N2CCOCC2)cc1	?	1%	22	4.4	-4	17%	29%
O=C1CC(C(=O)Nc2ccccc2)N=C(N2CCCCC2)N1 (stereo unspecified)	0.7%	15%	-9	-0.7	-16	9%	-35%
COCC(=O)Nc1ccccc1NC(C)=O	1.7%	9%	-9	2.7	7	9%	-37%[inhibitor]
CCCCNC(=O)c1cc2nc(-c3ccc(OC)cc3)cc(C(F)(F)F)n2n1	4.5%	nt	nt	nt	-16	nt	-70%[inhibitor]
Cc1ccc2c(CC(=O)OCC(=O)N(CC(C)C)c3c(N)n(Cc4ccccc4)c(=O)[nH]c3=O)coc2c1	nt	-7%	-8	nt	-6	nt	8%[15.4 µM]
COc1ccc(CN2CCSCC2)cc1C	-1.1%	2%	-8	-0.5	-16	-18%	7%
N/C(=N\OC(=O)c1cccnc1)c1ccc(Cl)cc1Cl	nt	5%	-1	-1.0	?	24%	1%
Cn1c(CSCc2ccccc2)nnc1SCC(=O)Nc1nccs1	-1.0%	?	1	2.2	2	16%	6%
O=C(Nc1cccc(Cl)c1)Nc1ccc(Cl)cn1	-2.2%	3%[15.4 µM]	12	-3.2	-4	3%	-41%[inhibitor]
CCOC(=O)C1=C(COC(=O)c2ccc(Cl)c(S(=O)(=O)N3CCOCC3)c2)NC(=O)NC1C (stereo unspecified)	-2.3%	3%	nt	nt	0	nt	15%
